# High-throughput results from PubChem.
# KCNQ2 enhance = potentiators of rat KCNQ2 potassium channel; Potassium voltage-gated channel subfamily KQT member 2 (Rattus norvegicus), O88943; CHO-K1 KCNQ2, FluxOR thallium flux fluorescence; active compounds read high; B-score at 10 µM; hit rate 0.54% among 310,000;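 active means fluorescence ratio B-score at least 3 SD of library B-scores, with initial fluorescence B-score within 3 SD, cut at about 5.3 in these data; same plate scores as AID 2156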;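 further: B-score of peak minus minimum over baseline fluorescence ratio after K+ and Tl+ stimulus; positive B-score means potentiation of KCNQ2 with more thallium influx and brighter signal; only the inactives scoring about 0 or higher are listed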
# Target sequence (O88943 whole entry, looked up): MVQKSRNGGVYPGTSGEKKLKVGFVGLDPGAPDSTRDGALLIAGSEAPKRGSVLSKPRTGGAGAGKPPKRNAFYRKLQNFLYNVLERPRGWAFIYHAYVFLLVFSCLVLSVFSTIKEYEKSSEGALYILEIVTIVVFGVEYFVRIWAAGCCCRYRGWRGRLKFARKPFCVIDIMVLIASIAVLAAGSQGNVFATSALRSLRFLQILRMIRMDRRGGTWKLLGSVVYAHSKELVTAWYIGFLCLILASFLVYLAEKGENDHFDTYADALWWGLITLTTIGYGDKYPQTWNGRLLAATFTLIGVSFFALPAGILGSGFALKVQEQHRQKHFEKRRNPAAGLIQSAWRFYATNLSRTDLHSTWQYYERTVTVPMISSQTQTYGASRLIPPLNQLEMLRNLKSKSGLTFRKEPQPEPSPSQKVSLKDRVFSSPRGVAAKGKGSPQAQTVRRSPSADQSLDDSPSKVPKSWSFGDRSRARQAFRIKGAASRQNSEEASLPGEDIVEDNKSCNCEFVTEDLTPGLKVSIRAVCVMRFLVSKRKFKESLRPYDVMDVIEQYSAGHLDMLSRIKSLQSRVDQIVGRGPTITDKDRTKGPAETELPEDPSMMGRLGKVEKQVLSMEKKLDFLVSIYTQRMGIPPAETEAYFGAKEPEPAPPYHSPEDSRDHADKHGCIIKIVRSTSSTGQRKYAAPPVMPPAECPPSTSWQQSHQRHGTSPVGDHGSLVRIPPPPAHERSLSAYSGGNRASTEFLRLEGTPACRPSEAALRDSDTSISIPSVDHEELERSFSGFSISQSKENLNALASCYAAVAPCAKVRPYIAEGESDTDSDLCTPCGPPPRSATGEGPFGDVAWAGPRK
# KCNQ2 enhance baseline = second read-out of KCNQ2 enhance, no call of its own (marks repeat the call); B-score; compound at 10 µM; measured here: initial fluorescence intensity artifact check;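 brightness before thallium and not channel activity; 0 = typical well and far values either way flag optical interference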
# * marks the source's active call; other numbers are inactive results.
# Preview, 6 compounds:
SMILES,KCNQ2 enhance,KCNQ2 enhance baseline
CCCCN(CC)Cc1ccc(CNC(=O)Nc2ccccc2)o1,0.54,1.7
COCCN1C=C2C(=O)C(C)(OC(=O)C3CCCC3)C(=O)C(c3ccccc3)=C2C=C1CCCC(=O)OC (stereo not drawn),0.93,-1.4
CCc1nnc(SC(C)C(=O)Nc2nccs2)n1C (stereo not drawn),1.8,-0.08
COC(=O)c1ccc(CSc2nnc(Nc3ccc(C)cc3)s2)o1,0.96,0.33
Cc1ccc(NC(=O)Nc2nnc(-c3ccncc3)s2)cc1C,0.7,-0.8
NS(=O)(=O)c1ccc(N2CCCCCC2)c([N+](=O)[O-])c1,0.14,-0.01

# Results (from the top)
SMILES,KCNQ2 enhance,KCNQ2 enhance baseline
CCCCN(CC)Cc1ccc(CNC(=O)Nc2ccccc2)o1,0.54,1.7
COCCN1C=C2C(=O)C(C)(OC(=O)C3CCCC3)C(=O)C(c3ccccc3)=C2C=C1CCCC(=O)OC (stereo not drawn),0.93,-1.4
CCc1nnc(SC(C)C(=O)Nc2nccs2)n1C (stereo not drawn),1.8,-0.08
COC(=O)c1ccc(CSc2nnc(Nc3ccc(C)cc3)s2)o1,0.96,0.33
Cc1ccc(NC(=O)Nc2nnc(-c3ccncc3)s2)cc1C,0.7,-0.8
NS(=O)(=O)c1ccc(N2CCCCCC2)c([N+](=O)[O-])c1,0.14,-0.01
C=C(C)CNC(=S)NN=C1c2ccccc2-c2ccccc21,3.7,-0.27
Nc1nc(SCc2ccc(Cl)cc2)[nH]c(=O)c1-c1ccccc1,3,0.77
CCc1ccc(C(=O)COC(=O)c2ccco2)cc1,0.52,0.19
O=C(CSc1nnc(-c2ccncc2)n1C1CCCCC1)Nc1ccccc1,1.4,-0.28
CCc1noc(C)c1C(=O)OCC(=O)NC(=O)c1ccccc1,0.37,0.94
Fc1ccccc1Cc1nnc2n1N=C(c1ccc(Cl)cc1)CS2,1.4,-0.07
O=C(NCCCN1CCOCC1)C1CCCN(S(=O)(=O)N2CCCCC2)C1 (stereo not drawn),0.6,1.1
Cc1nnc(NC(=O)CSc2nnc(NC(=O)C(C)(C)C)s2)s1,0.04,0.2
O=C(NC(=S)N1CCN(c2ccc([N+](=O)[O-])cc2)CC1)c1ccco1,1.6,-0.68
CCOCCCNC(=O)CN1C(=O)c2cccc3cccc1c23,0.6,0.62
Cc1coc2cc3oc(=O)c(CCC(=O)NCCCN4CCOCC4)c(C)c3cc12,2.1,0.28
CCC1CCCCN1CCCNC(=O)CSc1nc2nc(C)c(Cc3ccc(C)cc3)c(C)n2n1 (stereo not drawn),1.2,-0.82
CCn1cc(/C=C(\NC(=O)c2ccccc2F)C(=O)NCCCn2ccnc2)c2ccccc21,0.12,1.7
Cc1ccc(C(=O)NCC(=O)NCC(=O)OCC(=O)c2ccc(Br)cc2)cc1,0.3,-1.4
CC(=O)N1CCN(c2ccc(Oc3ncnc4sccc34)cc2)CC1,0.94,-0.6
CC1=NCCN1S(=O)(=O)c1cc(Cl)ccc1Cl,1.7,-0.98
CCOCc1cnc(C)nc1NCC(=O)c1c(C)[nH]c2ccc(OC)cc12,0.08,1.3
O=C(NCc1ccncc1)C(=O)NCC(c1ccco1)N1CCN(c2ccc(F)cc2)CC1 (stereo not drawn),1,1.3
C=CCn1c(C(O)c2ccccc2)nc2ccccc21 (stereo not drawn),0.13,0.11
CCOC(=O)CC(=O)CSc1ncnc2c1cnn2-c1ccccc1,0.02,0.32
CCN(CC)CCCNC(=S)N1CCC(c2nc3ccccc3[nH]2)CC1,0.82,1.4
Cc1ccc2oc(=O)cc(CN3CCOCC3)c2c1,0.23,-0.43
CCOc1ccc(N(CC(=O)NCCc2ccc(Cl)cc2)S(=O)(=O)c2c(C)[nH]c(=O)[nH]c2=O)cc1,2,-0.29
O=C(c1ccco1)N1CCCN(Cc2nc(-c3ccc4c(c3)OCO4)no2)CC1,1.6,-2.2

# 4 entries picked at random from the list so far, as already listed:
SMILES,KCNQ2 enhance,KCNQ2 enhance baseline
CC1=NCCN1S(=O)(=O)c1cc(Cl)ccc1Cl,1.7,-0.98
CCN(CC)CCCNC(=S)N1CCC(c2nc3ccccc3[nH]2)CC1,0.82,1.4
Cc1ccc2oc(=O)cc(CN3CCOCC3)c2c1,0.23,-0.43
CCOc1ccc(N(CC(=O)NCCc2ccc(Cl)cc2)S(=O)(=O)c2c(C)[nH]c(=O)[nH]c2=O)cc1,2,-0.29

# Next section:
SMILES,KCNQ2 enhance,KCNQ2 enhance baseline
O=c1o[nH]c(-c2ccccc2)c1N=Nc1c(F)cccc1Cl,1.1,-0.1
COc1ccc(CCN(Cc2ccccn2)C(=S)Nc2ccccc2C)cc1OC,1.1,-1.6
N#Cc1ccccc1OCC(=O)Nc1ccc2c(c1)OCCCO2,0.11,1.9
COCCNc1nnc(SCC(=O)NC(=O)c2ccccc2OC)s1,0.88,0.03
COC(=O)CCC(=O)c1oc2ccccc2c1N,0.71,0.18
Cc1ccccc1-c1nc(CS(=O)CC(=O)NCCN2CCOCC2)c(C)o1 (stereo not drawn),1.8,1.2
CCC1=C(OC(=O)N(CC)CC)N2C(=O)OC(=NCC(=O)OC)[C@]2(C)[C@H]2C1=CC[C@H]1C(=O)N(C)C(=O)[C@H]12,0.74,1.6
O=S(=O)(Nc1ccc2cn[nH]c2c1)c1ccccc1,0.89,1.6
c1csc(-c2cn3ccc4ccccc4c3n2)c1,0.46,1.6
O=C(COC(=O)Cc1c[nH]c2ccccc12)Nc1cccc2ccccc12,0.51,-0.84
O=C(O)Cc1nc(-c2cccnc2)sc1-c1ccc(Br)cc1,0.9,0.02
CC(=O)Nc1sc(N/N=C\c2ccccc2F)nc1-c1cccs1,0.24,-0.3
CCn1c2ccccc2c2cc(NC(=O)COC(=O)Cc3cn4ccsc4n3)ccc21,0.91,-1
O=C1CC(N2CCOCC2)C(=O)N1c1ccc2c(c1)OCO2 (stereo not drawn),0.87,-0.23
CC(C)C(=O)Nc1ccc2oc(=O)ccc2c1,0.06,-3.3
COc1ccc(N2CCN(C(=O)CSc3nnc(-c4cccnc4)n3-c3ccc(F)cc3)CC2)cc1,0.33,0.98
N#Cc1cccc(C(=O)OCC(=O)c2ccc3c(c2)NC(=O)CO3)c1,0.06,0.24
CC(Sc1nc2sc3c(c2c(=O)n1-c1ccccc1)CCCC3)C(=O)O (stereo not drawn),1.2,0.74
CN1CCN(CCCNC(=O)c2ccc3c(c2)N(Cc2ccc(F)cc2)CCS3)CC1,1.9,0.23
Cc1ccc(C)c(N2CCN(C(=O)CCn3c(=S)[nH]c4cc5c(cc4c3=O)OCO5)CC2)c1,0.65,-2.5
CCOc1ccc(OCC)c(S(=O)(=O)N2CCOCC2)c1,0.03,2.6
N#CC1=C2Sc3ccccc3N2CCCC1=O,0.13,1.7
COc1ccccc1NC(=O)c1nnn(Cc2ccccc2)c1NC(C)=O,0.6,1.1
Cc1ccc(SCCC(=O)N2CCOCC2)cc1,0.16,-0.02
COCCn1c(N2CCCC2)nc2c1c(=O)[nH]c(=O)n2C,0.69,0.05
COc1ccccc1N1CCN(C2CCN(C(=O)COc3cccc(C)c3)CC2)CC1,0.61,-0.23
N/C(=N\N=C\c1ccnc2ccccc12)SC1CC(=O)N(c2ccc(Br)cc2)C1=O (stereo not drawn),0.04,-0.94
CCOc1ccc2ccccc2c1/C=N/NC(=O)c1ccncc1,1.4,0.75
N#Cc1cc(C#N)c(N2CCN(c3cccc(Cl)n3)CC2)nc1N,0.01,-1.3
Cc1cccc(NC(=O)COc2coc(CN3CCN(c4ccccc4)CC3)cc2=O)c1,1.8,1
Cc1ccc(NC(=O)NC(=O)c2cnccc2C(F)(F)F)c(C)c1,0.34,0.02
COCCN(CCOC)S(=O)(=O)c1ccc(C(=O)Nc2nc3c(s2)CCc2ccccc2-3)cc1,0.61,-0.01
CCOCCOC(=O)COc1ccc2c(=O)c(Oc3ccc(OC)cc3)coc2c1,0.12,-1.5
CCn1c(CNC(=O)COc2ccc(C(C)C)cc2)nnc1SCC(=O)Nc1ccc(F)cc1,0.92,0.03
O=C(NCc1ccccc1)C1CCC1,2.1,-1.8
COc1cccc(CNC(=O)CCS(=O)(=O)c2cccc3nonc23)c1,1.5,-1.5
Cc1ccc(C)c(S(=O)(=O)NCc2cccnc2)c1,0.04,0.36
O=C1CN(Cc2nc3cc(Cl)ccc3c(=O)[nH]2)CCN1,0.58,0.62
CCC(=O)Nc1nc(C)c(-c2csc(Nc3cccc(C(=O)O)c3)n2)s1,0.72,0.65
CCCCN(CC)CCCNC(=O)CC1Oc2ccccc2NC1=O (stereo not drawn),0.98,-0.32
CC(=O)c1c(-c2ccccc2)c2cc(Cl)ccc2n(C)c1=O,2.7,-1.4
O=[N+]([O-])c1cc(Cl)cc2c1nc(NCCO)c1ccccc12,2,1.1
CCOC(=O)CC1NCCc2c1[nH]c1ccc(OC)cc21 (stereo not drawn),0.45,-1.7
COc1ccc(N(C(=O)c2ccncc2)S(=O)(=O)c2ccc3c4c(cccc24)C(=O)N3C)cc1,1.2,-0.98
CCOc1ccc(-c2csc(NC(=O)c3ccco3)n2)cc1,1.4,2.4
O=C(COc1cc(Cl)c(Cl)cc1Cl)Nc1cccc(O)c1,0.75,1.5
O=[N+]([O-])c1ccc(C[n+]2ccc(Cc3ccccc3)cc2)cc1,0.72,-1
COc1ccc(-c2n[nH]c(=S)n2-c2cc(OC)ccc2OC)cc1,1.3,-0.02
CCOC(=O)c1c(NC(=O)C2C3C=CC(CC3)C2C(=O)O)sc(C)c1CC (stereo not drawn),2.2,-1.2
C=CCOCCN(CC)CC,0.93,-0.67

# Given as tab-separated lines: entries from further up.
Molecule	KCNQ2 enhance	KCNQ2 enhance baseline
O=[N+]([O-])c1cc(Cl)cc2c1nc(NCCO)c1ccccc12	2	1.1
O=C(COc1cc(Cl)c(Cl)cc1Cl)Nc1cccc(O)c1	0.75	1.5
CCOc1ccc(-c2csc(NC(=O)c3ccco3)n2)cc1	1.4	2.4

# Carrying on.
SMILES,KCNQ2 enhance,KCNQ2 enhance baseline
COc1ccc(S(=O)(=O)NC2CC2)cc1Cl,0.25,-0.33
CC1CCc2sc(C(=O)NNC(=S)NCC3CCCO3)cc2C1 (stereo not drawn),0.02,1.2
Fc1ccc(-c2n[nH]c(=S)n2CC2CCCO2)cc1 (stereo not drawn),0.5,-2.2
O=C(c1ccc(S(=O)(=O)N2CCCCC2)cc1)N1CCN(c2ccccc2)CC1,0.28,-0.92
O=C(c1ccccc1)c1ccc2nc(-c3ccc(NC(=O)c4ccccc4F)cc3)[nH]c2c1,0.11,1.3
CCC(=O)N(CCCN(C)C)c1nc(-c2cc(OC)ccc2OC)cs1,0.36,0.05
O=C(COc1ccc(F)cc1)NC1CC1,0.08,1
Cc1cccc(-n2c(-c3ccncc3)n[nH]c2=S)c1,2.4,-0.59
O=C(Nc1nnc(Cc2ccc(F)cc2)s1)Nc1ccccc1F,0.29,-0.03
Cc1ccc2c(c1)N(CC(=O)N1CCCc3ccccc31)C(=O)C(C)O2 (stereo not drawn),0.89,-0.1
COc1ccc(C2(O)CCN(Cc3nnnn3Cc3ccc(F)cc3)CC2)cc1,0.83,-0.16
COc1ccccc1CNC(=O)CSc1ccc(-c2ccccn2)nn1,0.02,-1.2
COc1ccc(C(CC(=O)O)NC(=O)Cc2ccccc2)cc1OC (stereo not drawn),1.1,-0.13
CCc1cc(=O)oc2c(C)c(OCC(=O)NC3CC(C)(C)NC(C)(C)C3)ccc12,1.5,0.1
CCOc1ccc(N2CC(C(=O)NCCc3c[nH]c4ccc(OC)cc34)CC2=O)cc1 (stereo not drawn),0.82,0.87
CCCCC(c1nnnn1CCOC)N1CCN(C(=O)c2ccco2)CC1 (stereo not drawn),0.65,-0.02
CC(C)c1cc(C(=O)NCc2cccnc2)no1,1.3,0.03
Cc1ccc(Oc2ncccc2CO)cc1,0.55,0.4
CC1(O)CC(=O)N(c2ccccc2)O1 (stereo not drawn),0.77,-1.3
COCCNC(=O)Cn1c(=O)n(CCC(=O)NCCc2ccccc2)c(=O)c2ccccc21,0.07,1.1
CCC12CN3CCN(CC(C3)/C1=N\NC(=O)Nc1ccccc1)C2,0.95,0.03
Cc1cc(C)cc(NC(=O)C2CCCN2/C=C/C(=O)C(F)(F)F)c1 (stereo not drawn),1.1,0.36
CC1CCCCC1NC(=O)CSCC(=O)O (stereo not drawn),1.9,-0.02
c1ccc2c(c1)COC(CNC1CCCCC1)OC2,0.32,-0.64
Cc1nc2cc(N3CCCCC3)c(NC(=O)c3ccncc3)cc2c(=O)n1Cc1ccc(Cl)cc1,1.8,-0.16
CCOC(=O)c1c(C)nc2c(c1-c1cc(OC)ccc1OC)C(=O)c1ccccc1-2,0.12,0.58
Nc1nonc1-c1noc(N2CCCCC2)n1,0.08,-2.9
COc1ccc(-c2nnn(Cc3nn[nH]n3)n2)cc1OC,0.53,0.03
COc1cccc(NC(=O)C2CCN(C(=O)[C@@H]3Cc4ccccc4CN3)CC2)c1,0.93,-0.06
Cc1ccc(S(=O)(=O)N2CCCC(C(=O)Nc3ccc(C(=O)O)cc3)C2)cc1Cl (stereo not drawn),0.15,0.16
CCc1cccc(CC)c1NC(=O)COC(=O)c1ccc2c(c1)S(=O)(=O)c1ccccc1C2=O,1.4,0.21
Cc1ccc(C)c(NC(=O)c2sc(Cl)nc2C)c1,1,1.1
CCc1c(C)nc(N2CCN(c3ccccc3F)CC2)[nH]c1=O,1.1,0.02
Cc1ccc(C(=O)CSc2nnc(-c3ccccc3N)n2C)cc1C,1.1,-0.72
CCC(=O)c1ccc(OCC(=O)Nc2ccc(N3CCOCC3)cc2N2CCOCC2)cc1,0.04,-1.4
O=C1CCC(C(=O)NCc2ccc3c(c2)OCO3)N1 (stereo not drawn),1.7,-0.91
CN(CCOc1ccc(Cl)cc1)C(=O)CN1C(=O)NC2(CCCCC2)C1=O,0.86,-0.2
C=C1CCC[C@]2(C)C[C@H]3OC(=O)C(CNC(C)(CO)CO)[C@H]3CC12 (stereo partly drawn),0.03,0.69

# These rows are one share of the data. The share of hits here may be higher or lower than overall.
